High-throughput results (PubChem)
KCNQ2 block: KCNQ2 potassium channel inhibitors, primary screen, cell-based, CHO-K1, FluxOR thallium flux, B-score (AID 2156); B-score at 10 µM; Potassium voltage-gated channel subfamily KQT member 2 (Rattus norvegicus), O88943; hit rate 1.1% among 310,000; 20 min; active compounds read low; only compounds with negative scores are shown here; some inactives read as strong as hits;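 active = fluorescence ratio B-score at most minus 3 library SDs, with starting brightness B-score within 2 library SDs, cut at about -5.5 in these data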
Target sequence (O88943 whole entry, looked up): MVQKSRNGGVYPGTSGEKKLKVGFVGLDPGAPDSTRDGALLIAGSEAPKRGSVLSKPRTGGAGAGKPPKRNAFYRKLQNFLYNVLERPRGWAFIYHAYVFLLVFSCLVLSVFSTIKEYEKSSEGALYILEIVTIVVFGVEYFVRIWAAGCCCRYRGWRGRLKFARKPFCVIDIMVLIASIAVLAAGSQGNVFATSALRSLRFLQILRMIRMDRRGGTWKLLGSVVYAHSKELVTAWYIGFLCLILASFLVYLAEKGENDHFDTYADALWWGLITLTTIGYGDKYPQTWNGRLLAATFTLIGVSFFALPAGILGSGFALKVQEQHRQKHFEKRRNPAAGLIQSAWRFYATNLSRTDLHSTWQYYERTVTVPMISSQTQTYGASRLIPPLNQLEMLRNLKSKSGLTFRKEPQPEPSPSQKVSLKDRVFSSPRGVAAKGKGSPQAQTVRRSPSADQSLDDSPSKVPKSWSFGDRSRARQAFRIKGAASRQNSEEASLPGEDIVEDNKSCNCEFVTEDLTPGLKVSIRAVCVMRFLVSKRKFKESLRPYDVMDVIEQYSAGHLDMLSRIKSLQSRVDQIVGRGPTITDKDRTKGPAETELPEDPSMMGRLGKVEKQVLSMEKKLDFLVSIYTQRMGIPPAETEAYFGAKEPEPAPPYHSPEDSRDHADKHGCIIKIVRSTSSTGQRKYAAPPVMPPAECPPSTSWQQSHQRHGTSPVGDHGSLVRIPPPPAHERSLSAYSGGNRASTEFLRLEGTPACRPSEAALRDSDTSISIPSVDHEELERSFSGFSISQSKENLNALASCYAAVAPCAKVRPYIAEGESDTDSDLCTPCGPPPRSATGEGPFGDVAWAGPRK
KCNQ2 block baseline: second read-out of KCNQ2 block, no call of its own (marks repeat the call); B-score; measured here: initial fluorescence intensity artifact check;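 brightness before thallium and not channel activity; 0 = typical well and far values either way flag optical interference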
* marks the source's active call; other numbers are inactive results; i = inactive. Not all compounds are listed. The share of hits here may be higher or lower than overall.

SMILES	KCNQ2 block	KCNQ2 block baseline
Cc1ccnc(NS(=O)(=O)c2ccc(NC(=O)CCS(=O)(=O)c3ccccc3)cc2)n1	i	0.03
N#CCCn1cnc2ccccc21	i	-1.4
Nc1ncnc(Nc2ccc(F)cc2)n1	i	2.4
COCCN1CCN(Cc2cn[nH]c2-c2cc3ccccc3o2)CC1	i	0.68
CCc1ccc2[nH]c(=O)c(CN(Cc3ccccc3)C(=O)Nc3ccccc3OC)cc2c1	i	0.13
COc1ccc(N2CCN(S(=O)(=O)c3cn(C)c(=O)n(C)c3=O)CC2)cc1	i	1
Cc1ccccc1C(=O)OCc1cnc(Cl)s1	i	-0.67
CCCCCCn1c(C(C)NC(=O)c2ccco2)nc2ccccc21 (stereo unspecified)	-6.2*	-0.32*
O=C(COC(=O)CCc1c[nH]c2ccccc12)Nc1ccc([N+](=O)[O-])cc1	i	1.7
O=C(CN(Cc1cccs1)C(=O)CNS(=O)(=O)c1ccc(Cl)cc1)NCc1ccco1	i	0.11
CCc1noc(C)c1C(=O)Nc1nc2c(C)cccc2s1	i	1.1
CN(C)c1cc(N/N=C\c2ccccc2)nc(N(C)C)n1	i	-1.9
COc1ccc(OC)c2[nH]c(=O)c(CCNC(=O)C3CCCCC3)cc12	i	-0.46
O=C(c1ccc(CS(=O)Cc2ccc(Cl)cc2)o1)N1CCN(c2cccc(Cl)c2)CC1 (stereo unspecified)	i	0.33
Cc1nn(-c2ccccc2)cc1/C=N/NC(=O)c1cccs1	i	0.04
CCCCCCC(=O)OCC(=O)c1ccc2c(c1)NC(=O)CO2	i	0.59
COc1ccc2nc(-c3cccc(N)c3)[nH]c2c1	i	0.84
COc1cccc(NC(=O)Cn2cc(C#N)c3ccccc32)c1	i	0.14
C/C(=N\Nc1cccc(C(F)(F)F)c1)c1ccc(O)cc1	i	-1.5
CC(C)(C)NS(=O)(=O)c1ccc(NC(=S)NC(=O)C2CC2)cc1	i	0.05
CCOC(=O)c1ccccc1NC(=O)c1ccc(F)cc1	i	-0.45
Cn1c(NCc2c[nH]c3ccccc23)nc2ccccc21	i	-0.03
COc1cccc2cc(-c3nnc(-c4ccccc4)o3)c(=O)oc12	i	0.56
COc1ccc(NC(=S)NNC(=O)c2ccccc2OC(F)F)cc1	i	-0.25
O=S(=O)(N/N=C/c1cccnc1)c1ccc(Cl)c(Cl)c1	i	0.2

Some of the entries above, reformatted.
CC(C)(C)NS(=O)(=O)c1ccc(NC(=S)NC(=O)C2CC2)cc1
  KCNQ2 block: i
  KCNQ2 block baseline: 0.05

COc1ccc(NC(=S)NNC(=O)c2ccccc2OC(F)F)cc1
  KCNQ2 block: i
  KCNQ2 block baseline: -0.25

Continuation.
SMILES	KCNQ2 block	KCNQ2 block baseline
CCn1c(SCC(=O)N2CCCC2)nc2c1c(=O)n(C)c(=O)n2C	i	-0.91
Cc1c(C(=O)N2CCC(C)CC2)oc2ccc3c(c12)C(O)CC1(CCCCC1)O3 (stereo unspecified)	i	0.35
Cc1ccnc(NC(=O)c2ccccc2NC(=O)c2ccccc2)c1	i	-0.83
COC(=O)Cc1ccc(N(Cc2ccccc2F)S(=O)(=O)c2ccc(Cl)cc2)cc1	-8.2*	-1.6*
Cc1nc(-c2ccccc2)nc2[nH]ccc(=O)c12	i	0.49
CC(=O)c1ccc(-n2c(CCC(=O)O)ccc2-c2ccc(Br)cc2)cc1	i	0.07
CC1(C)CC(c2nc(-c3ccc(Cl)cc3)cs2)CCS1 (stereo unspecified)	-6.4*	0.01*
O=C(CSc1nc2ccc(Cl)cc2[nH]1)NCCc1ccc(Cl)cc1	i	-1.1
CSCC(C)N1CCC(n2nccc2NC(=O)CCCc2ccccc2)CC1 (stereo unspecified)	i	4.9
CCN(CC)C(=O)C1CC(=O)OC12CCCCC2 (stereo unspecified)	i	0.54
O=C1NNC(=O)C1c1ccccc1	i	0.68
CCOC(=O)C(NC(=O)c1ccc(Cl)cc1Cl)(Nc1ccc(C)cc1)C(F)(F)F (stereo unspecified)	-8.5*	2.5*
CC(=O)Oc1ccc2ccccc2c1C(NC(=O)Cc1ccccc1)c1ccccc1Cl (stereo unspecified)	i	-0.04
CCN(CC)CCN(C(=O)C1=COCCO1)c1nc2ccc(C)cc2s1	i	0.03
O=C(Cn1cncn1)NCc1cccc(OC(F)F)c1	i	-0.19
Cc1cccc2sc(NC(=O)CSc3cn[nH]n3)nc12	i	4.7
COc1ccc(C(=O)N2CCc3cc(OC)c(OC)cc3C2c2ccc(OC)c(OC)c2)cc1OC (stereo unspecified)	i	0.47
c1ccc2c(c1)CCN(c1nc3cc4c(cc3s1)OCCO4)C2	i	0.14
CCN(Cc1ccncc1)C(=O)c1cc(COc2ccc(OC)cc2Cl)on1	i	0.59
ON=C1/C(=N\O)CC2(C/C1=N/O)OCCO2	i	5.2
CCN(CC)C(c1ccc(F)cc1)c1nnnn1C1CCCCC1 (stereo unspecified)	i	3.2
COc1ccc(CN=C2Nc3ccccc3CS2)cc1	i	0.02
CCc1nccn1CCC(=O)NC1CC(C)(C)Cc2c1cnn2-c1ccc(C)cc1 (stereo unspecified)	i	0.05
CC(C)N(C=O)C1(C(=O)NC2CCCCC2)CCCCC1	i	1.3
Cc1ccc(C)c(NC(=O)c2cc3ccccc3o2)c1	i	0.05
The results go on:
SMILES	KCNQ2 block	KCNQ2 block baseline
CC(C)NC(=S)Nc1ccc2cn[nH]c2c1	i	1.1
Cc1cc([N+](=O)[O-])nn1Cc1ccc(C(=O)N/N=C/c2ccccc2)cc1	i	1.7
Cc1cc(C(=O)N/N=C/c2ccc(O)c(O)c2O)c(C)n1-c1ccccc1	i	0.87
CC(C)N1CCC(N2CCN(Cc3ccc(Oc4ncccn4)cc3)CC2CCO)CC1 (stereo unspecified)	i	2.3
C=CCN1CC2(c3ccccc3)CN(CC=C)CC(c3ccccc3)(C1)C2=O	i	0.26
C=CCn1c(C)cc(C(=O)CN2NS(=O)(=O)c3ccccc3C2=O)c1C	i	-0.93
CSc1ccccc1OCc1cc(C(=O)NCCCc2ccccc2)no1	i	1.6
Cc1nc(N)sc1N=Nc1ccccc1C(F)(F)F	i	0.12
Cc1[nH]c2ccccc2c1C1=NNC(=Nc2ccc(F)cc2)SC1	i	0.21
COc1cccc(-c2nc(CS(=O)(=O)CC(=O)Nc3cccc(C)c3C)c(C)o2)c1	i	0.44
O=C(O)c1cccc2c1C(=O)c1ccccc1-2	i	-1.8
O=S(=O)(NCc1ccccc1)c1cccc2cccnc12	i	1.8
O=C(Nc1nc(=O)n(C(=O)c2cccc(C(F)(F)F)c2)s1)c1ccccc1	i	-0.51
CCOc1cccc(CN2CCN(CCCc3ccccc3)C(CCO)C2)c1O (stereo unspecified)	i	-0.47
Cc1ccc(C)c(NC(=S)N(Cc2ccc(Cl)cc2)Cc2ccc(C(=O)O)cc2)c1	i	0.84
Cn1c(SCC(=O)Nc2ccccc2O)nnc1-c1ccco1	i	1.6
Cc1ccc(N2CC(C(=O)NC3CCSC3=O)CC2=O)cc1 (stereo unspecified)	i	-0.3
C/C(CCc1ccco1)=N/NC(=O)CCC(=O)Nc1cccc(Cl)c1	i	-0.95
COc1ccc(C(=O)Nc2nnc(C3=COCCO3)o2)cc1OC	i	-3.1
O=C(Nc1ccccc1)N(C1=NCCCCS1)c1cccc2ccccc12	i	-3.4
COc1cc(/C=C2\N=C3CCCCCN3C2=O)ccc1O	i	0.83
CC(C)CCNC(=O)C12CN(Cc3ccccc3)CC1C(c1ccc([N+](=O)[O-])cc1)=NO2 (stereo unspecified)	i	-0.03
CC(C)(C)c1ccc(NC(=O)COC(=O)c2ccc(NS(=O)(=O)c3ccc(F)c(F)c3)cc2)cc1	i	0.53
CCCOc1ccc(C(=O)NC2CCSc3ccccc32)cc1 (stereo unspecified)	i	-0.94
Cc1ccc(S(=O)(=O)N2c3ccccc3OCC2C(C)(C)C)cc1 (stereo unspecified)	i	-0.15
(more compounds)
SMILES	KCNQ2 block	KCNQ2 block baseline
CC(=O)OC1CCC2(C)C(CCC3C2CC(OC(C)=O)C2(C)C3C[C@@H]3O[C@]4(CC[C@@H](C)CO4)[C@@H](C)C32)C1 (stereo partly specified)	i	1
CCCC(=O)NC(=S)Nc1ccc(S(=O)(=O)N2CCc3ccccc32)cc1	i	0.07
Cn1cc([N+](=O)[O-])c(C(=O)NCC(=O)O)n1	i	0.87
COc1ccc(CNC(=O)C2CCN(S(=O)(=O)N3CCCC3)CC2)cc1	i	-0.72
COc1ccc(-n2nc(C(=O)NCC(=O)Nc3cccc(Cl)c3)c3ccccc3c2=O)cc1OC	i	-0.21
CC(C)C[C@@]12C(=O)N(c3cccc(F)c3)C(=O)N1[C@H](c1ccc(Br)cc1)[C@@H]1C(=O)N(C(C)(C)C)C(=O)[C@@H]12	i	0.08
Clc1ccc(CSc2nnc(/C=C/c3ccccc3)o2)c(Cl)c1	i	2.4
CCOC(=O)N1CCN(CC(=O)Nc2nc3ccccc3s2)CC1	i	2.9
CN1CCN(C(=S)NC(=O)c2ccc(Cl)cc2)CC1	i	0.49
CCCCNC(=O)C1(O)c2cc(Br)ccc2NC(=O)N1c1cccc(OC)c1 (stereo unspecified)	i	-2.1
Cc1cn2c(N)c(C=C3C=C(Cl)C(=O)C(Cl)=C3)c(=O)nc2s1	i	8.2
C=CCOC(=O)C1=C[C@H](c2ccc(C(F)(F)F)cc2)[C@@H](CCCO)[C@H](OCC)O1	i	-0.36
O=C1N=c2ccccc2=C1c1sc(NS(=O)(=O)c2ccccc2)nc1O	i	-2.5
O=C1CC(c2ccc(F)cc2)Cc2nc(NCc3ccco3)ncc21 (stereo unspecified)	i	0.15
Cc1noc(C)c1COc1ccc(CC(=O)NCCc2ccccc2)cc1	i	0.57
O=C(NNC1=NCCC1)c1cccc(S(=O)(=O)N2CCCCC2)c1	i	2
CC(=O)NCCn1c(SCC(=O)NC2CCCCC2)nc2ccccc2c1=O	i	0.07
C=CCOc1ccc(C2CC(C)=NN2c2ccccc2)cc1 (stereo unspecified)	i	1.5
O=C(CNC(=O)c1ccco1)Nc1ccc(Cl)cc1	i	0.29
O=C(C1=C[C@H](C2CCCCC2)C[C@H](OCc2ccc(CO)cc2)O1)N1CCOCC1	i	0.11
O=C(CCN1CCOCC1)Nc1ccc2c(c1)N(C(=O)CN1CCOCC1)c1ccccc1CC2	i	0.5
O=C(Cn1ncc2c1-c1ccccc1OC2)N1CCN(Cc2ccccc2)CC1	i	-1.9
O=C(CSc1n[nH]c(-c2cccnc2)n1)Nc1ccc([N+](=O)[O-])cc1	i	0.49
Cc1ccc(C(C)C)c(OCC(=O)Nc2ccc3c(c2)nc(CCN2CCCCC2)n3C)c1	i	-0.02
COc1ccc(C(=O)O)cc1S(=O)(=O)N1CCN(c2ccccn2)CC1	i	0.28
Continued.
SMILES	KCNQ2 block	KCNQ2 block baseline
COC(=O)C(O)(CC(=O)Nc1cc(OC)c(OC)c(OC)c1)C(F)(F)F (stereo unspecified)	i	-0.1
Cc1nc2sc(C(c3ccco3)N3CCOCC3)c(O)n2n1 (stereo unspecified)	i	-0.83
O=[N+]([O-])c1nn(-c2ccccc2)[n+]([O-])c1N1CCN(c2ccccc2F)CC1	i	2.8
N#C/C(=C\c1cn(CCOc2ccccc2)c2ccccc12)C(=O)NCc1ccco1	i	0.46
CCC1Oc2ccc(C)cc2N(CC(=O)NC2CCCCC2)C1=O (stereo unspecified)	i	0.05
CNc1c(NS(=O)(=O)c2cc(NC(C)=O)ccc2C)c(=O)oc2ccccc12	i	0.06
COc1cccc(NC(=O)CN(C)C(=O)c2cc(-c3cccc(Br)c3)nc3ccccc23)c1	i	0.32
c1ccc(-c2nc(N3CCOCC3)sc2-c2ccccc2)cc1	i	1
CCc1ccc(-c2cc(C)no2)cc1S(=O)(=O)Nc1ccc(Cl)cn1	i	-0.96
Cc1cc(C)c(-n2nnnc2SC(C)C)c(C)c1	i	2.6
Cc1cccc2sc(NC(=O)CSc3nnnn3C)nc12	i	1.6
CCN(CC)S(=O)(=O)c1cc(NC(=O)C(C)N(C)CC(=O)Nc2c(C)cccc2C)ccc1C (stereo unspecified)	i	0.03
O=[N+]([O-])c1ccc(CN2C=NS(=O)(=O)c3ccccc32)cc1	i	2.5
COc1cc(C(=O)OCC(=O)NC(=O)C2CCCCC2)ccc1OC(F)F	i	2.8
CCN1C(=O)[C@H]2[C@@H](c3ccc(C)cc3)N3C(=O)N(c4ccc(C(F)(F)F)cc4)C(=O)[C@@]3(CC(C)C)[C@H]2C1=O	i	-1.3
CCC(=O)Nc1cccc(-n2nnnc2SCC(=O)NCc2ccco2)c1	i	1.3
CCSc1n[nH]c2nc3c(c(=O)n12)C1(CCCCC1)Cc1ccccc1-3	i	-1.5
O=C(O)CC1(CC(=O)Nc2cc3ccccc3cn2)CCCCC1	i	0.98
CCOC(=O)N1N=C(CC)CC1(O)C(F)(F)F (stereo unspecified)	i	0.41
COc1ccc(C(=O)N2CCc3cc(OC)c(OC)cc3C2c2cccc([N+](=O)[O-])c2)cc1OC (stereo unspecified)	i	0.03

Quoted from the listing.
Under KCNQ2 block baseline, CCC(=O)Nc1cccc(-n2nnnc2SCC(=O)NCc2ccco2)c1 is listed with 1.3
Under KCNQ2 block baseline, CCOC(=O)N1N=C(CC)CC1(O)C(F)(F)F (stereo unspecified) is listed with 0.41
Under KCNQ2 block baseline, CCSc1n[nH]c2nc3c(c(=O)n12)C1(CCCCC1)Cc1ccccc1-3 is listed with -1.5
Under KCNQ2 block baseline, CCN1C(=O)[C@H]2[C@@H](c3ccc(C)cc3)N3C(=O)N(c4ccc(C(F)(F)F)cc4)C(=O)[C@@]3(CC(C)C)[C@H]2C1=O is listed with -1.3
Under KCNQ2 block baseline, COc1cccc(NC(=O)CN(C)C(=O)c2cc(-c3cccc(Br)c3)nc3ccccc23)c1 is listed with 0.32

Sorted by the number under KCNQ2 block baseline (smallest number first): 3 of the compounds above
SMILES	KCNQ2 block	KCNQ2 block baseline
CC(C)(C)NS(=O)(=O)c1ccc(NC(=S)NC(=O)C2CC2)cc1	i	0.05
CCCC(=O)NC(=S)Nc1ccc(S(=O)(=O)N2CCc3ccccc32)cc1	i	0.07
CCOC(=O)C(NC(=O)c1ccc(Cl)cc1Cl)(Nc1ccc(C)cc1)C(F)(F)F (stereo unspecified)	-8.5*	2.5*
